TAR Tat displ: TAR RNA-Tat peptide displacers, HIV-1, primary screen, biochemical, FRET, FAM/TAMRA-labeled Tat. HIV-1 TAR RNA, Tat peptide displacement FRET; hits give high values. z-score (concentration not given with the values). 100,000 compounds, 0.6% hits. AID 1259389, 2018;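 also: score is relative to mean and SD of negative controls; some compounds called inactive have numbers as strong as hits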
CDC25B CDK2 inh: primary biochemical HTRF screen for blockers of M-phase inducer phosphatase 2 binding to CDK2/cyclin A | z-score (concentration not given with the values) | 94,000 compounds, 0.72% hits | HTRF CDC25B-CDK2/CyclinA binding, anti-His/anti-Flag; hits give high values;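 also: score is relative to mean and SD of negative controls; strong numbers were not always called active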
* hit, by the source's call; x = no result given.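 The calls were made as follows: active = z-score from 3 up in half or more of its runs; inactive = the rest.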 An unsorted share of the library; about 0.87% have a hit in one of these screens.

molecule	TAR Tat displ	CDC25B CDK2 inh
Cn1c(C(=O)N2CCc3ccccc3C2)cc2oc3ccccc3c21	x	-0.86
Cc1ccc2oc(NC(=O)N3CCOCC3)cc(=O)c2c1	-0.13	-0.57
Cc1csc2sc(C(=O)N3CCOCC3)c(C)c12	x	-1.09
Cc1sc2c(c1C)CSC(C(=O)NC(C)CCc1ccccc1)=C2 (configuration not stated)	-2.11	x
CCc1ccc(S(=O)(=O)Nc2ccc3c(c2)N(S(C)(=O)=O)CCC3)s1	0.89	x
CCOc1ccc(-c2noc(-c3cccs3)n2)cc1OCC	2.3	-2.8
CCc1ccc(NC(=O)Nc2c[nH]c(=O)[nH]c2=O)cc1	1.6	x
CCOC(=O)c1c(C)[nH]c(C)c1S(=O)(=O)Nc1ccc(F)c(F)c1	-0.94	x
COc1ccc(-c2cc(C(=O)NN)c3ccc(C)cc3n2)cc1OC	x	-1.97
CN(Cc1ccccc1)C(=O)Cn1ncc2c3ccccc3n(Cc3ccc(F)cc3)c2c1=O	0.22	-0.58
Nc1ccc2nc(N3CCN(c4ccc(N5CCOCC5)nn4)CC3)cc(C(=O)O)c2c1	1.25	x
C=CCn1c(=O)sc2cc(NC(=O)CC(C)C)ccc21	1.25	x
c1ccc2c(c1)ccc1nnc(SCc3ccc4c(c3)OCO4)n12	x	1.07
CN1C2CCC1CC(NC(=O)CS(=O)(=O)c1ccc(F)cc1F)C2 (configuration not stated)	x	-1.82
CCOc1ccc(C(=O)CC2(O)C(=O)Nc3ccccc32)cc1 (configuration not stated)	1.11	1.09
Cc1cc(=O)oc(C)c1C(=O)NCC(C)CN1CCC(C)CC1 (configuration not stated)	x	-2.49
CCOc1ccc(OCC)c(NS(=O)(=O)c2cc(-c3cc(C)no3)ccc2CC)c1	1.52	x
CCN1CCN(C(=O)CN2C(=O)CSc3ccc(S(=O)(=O)N4CCCC4)cc32)CC1	x	-1.81
CCOC(=O)N1CCN(C(=O)c2cc(-c3cccs3)[nH]n2)CC1	-0.77	x
CCCOC(=O)C1=C(C)NC2=C(C(=O)CC(c3ccc(OC)cc3)C2)C1c1ccc(O)c(OCC)c1 (configuration not stated)	0.9	-0.64
CCNc1ncnc2onc(-c3cccc(Cl)c3)c12	0.38	x
Cc1ccccc1OCc1nnc(SCc2cc(=O)n3ccsc3n2)n1C	1.16	x
COCCNc1nc2c(S(=O)(=O)c3ccc(C)c(C)c3)nnn2c2ccsc12	-0.28	x
CN(C(=O)C1CCCN(c2ncnc3onc(-c4ccc(F)cc4)c23)C1)C1CCCCC1 (configuration not stated)	-1.22	x
COc1cc(-c2nc(-c3cccc(C(F)(F)F)c3)no2)cc(OC)c1OC	x	-2.41
COc1ccc(C2CC(=O)C3=C(C2)Nc2ccccc2NC3c2ccccc2OC)cc1OC (configuration not stated)	0.19	-1.03
CCCCC[C@H](O)/C=C/[C@H]1C=CC(=O)[C@@H]1CCCCCCC(=O)O	1.98	x
CCNC(=O)c1c(C)nc2ccccn12	-0.64	-0.43
CC(=O)Oc1c(S(=O)(=O)c2ccccc2)c(C)nn1C(C)(C)C	x	-1.81
O=C(NCc1cccs1)C1CCN(c2nc3cccnc3s2)CC1	1.35	x
COC1C=CC(CNC(=O)c2cc3c(=O)n4cccc(C)c4nc3n2C)(OC)O1 (configuration not stated)	x	-2.85
COCCN1C(=O)c2oc3cc(C)cc(C)c3c(=O)c2C1c1ccc(O)c(OC)c1 (configuration not stated)	0.87	-1.61
COc1ccc(-c2cc(C)no2)cc1S(=O)(=O)N1CCOc2ccc(Cl)cc21	1.53	x
O=S1(=O)C[C@H](NCCc2ccc(F)cc2)[C@@H](S(=O)(=O)c2ccc(Cl)cc2)C1	-0.69	0.54
Cc1c(C(=O)O)sc2nc3n(c(=O)c12)CCCCC3	0.24	0.05
CC(C)c1ccc(S(=O)(=O)N2CCOCC2)cc1	2.39	-0.24
O=C(Nc1ccc(N2CCOCC2)cc1)c1ccco1	0.12	-1.45
O=C(O)CCC(=O)Nc1ccc(Br)cc1	0.92	x
C=CCOc1ccc(C2N3CC4(C)CN2CC(C)(C3)C4)cc1 (configuration not stated)	2.13	1.07
CC12C=CC3(CN(CCCN4CCOCC4)C(=O)C3C1C(=O)O)O2 (configuration not stated)	-0.6	x

Entries of single compounds, looked up by structure.
COCCN1C(=O)c2oc3cc(C)cc(C)c3c(=O)c2C1c1ccc(O)c(OC)c1 (configuration not stated) in the list: TAR Tat displ = 0.87; CDC25B CDK2 inh = -1.61
CC(C)c1ccc(S(=O)(=O)N2CCOCC2)cc1 in the list: TAR Tat displ = 2.39; CDC25B CDK2 inh = -0.24

Further compounds.
molecule	TAR Tat displ	CDC25B CDK2 inh
O=c1ccccn1CCOc1ccc(Cl)cc1	-2.2	-2.17
Cc1ccc2c(c1)Cc1c(nc(-c3cccc(OC(C)C)c3)[nH]c1=O)O2	1.15	-0.19
Cc1ccc2oc(-c3cc(NC(=S)NC(=O)c4cccs4)ccc3O)nc2c1	x	-4.8
Cc1nn(C(C)C(=O)N2CCN(C3CCCCC3)CC2)c(=O)c2c1sc1ccccc12 (configuration not stated)	0.48	-2.2
CCn1c2ccccc2c2cc(N3C(=O)C4C5C=CC(C5)C4C3=O)ccc21 (configuration not stated)	x	-2.33
Cn1c(=O)c(-c2noc(-c3cccs3)n2)cn(-c2ccccc2)c1=O	x	-1.13
O=S(=O)(/N=C/c1ccccc1O)c1ccc(N=Cc2ccccc2O)cc1	x	-1.85
O=c1ccc(-c2ccc(S(=O)(=O)N3CCN(CCOc4ccc(Cl)cc4)CC3)o2)n[nH]1	0.56	x
CC1CCCN(S(=O)(=O)c2ccc(S(=O)(=O)N3CCN(c4ncccn4)CC3)cc2)C1 (configuration not stated)	2.02	-1.87
CN1C(=O)C(C)(C)c2cc(S(=O)(=O)N3CCC(C(=O)NC4CCCC4)CC3)ccc21	1.16	-0.84
COC(=O)[C@]1(Cc2ccc3c(c2)C[C@H](C(C)(C)O)O3)OC(=O)C(O)=C1c1ccc(O)cc1	2.89	x
Cc1ccc2c(c1)N(S(=O)(=O)c1cc3[nH]c(=O)c(=O)[nH]c3cc1C)CCO2	1.79	x
CC(C)CCn1c(=O)c2ccccc2n2c(=O)[nH]nc12	0.6	-0.88
COc1cc2c(cc1OC)C(C(=O)NCCN(C)C)C(c1cccs1)N(C)C2=O (configuration not stated)	1.39	-0.64
Cc1cc(NC(=O)c2sc3ccccc3c2Cl)cc(-c2nc3ncccc3o2)c1O	-3.7	4.65
O=C(Nc1ccc2nsnc2c1Br)c1sc2ccccc2c1Cl	x	-1.42
Nc1ccc2nc(SCC(=O)c3ccc(-c4ccccc4)cc3)sc2c1	x	16.8*
CCCCNC(=O)C1CCC(Cn2c(=O)c3sccc3n(CCCC)c2=O)CC1 (configuration not stated)	1.07	x
O=C(NCCCN1CCN(C2CCCCC2)CC1)c1ccc(-n2ccc3ccccc32)s1	0.34	x
Cc1cc(=O)oc2c1c(C)nn2-c1ccc(C(=O)OC(C)C)cc1	-0.67	-0.3
O=C(CCc1nc2ccccc2[nH]c1=O)OCc1cccc(Cl)c1	0.72	-0.64
CC1CCC(NC(=O)c2cc3c(s2)-c2ccccc2OC3)CC1 (configuration not stated)	1.84	0.09
Cc1ccc(Nc2cc(C)nc3nc(-c4ccccc4)nn23)c(C)c1	-7.39	0.08
O=C(CN1CCOCC1)N1c2ccccc2Sc2ccccc21	x	-2.74
CCc1ccc2c(c1)c(=O)c(S(=O)(=O)c1ccc(F)cc1)cn2CC	0.13	-0.56
CC1CC(C)(C)NC(=S)N1CCCC(=O)Nc1ccc(F)c(F)c1 (configuration not stated)	x	0.06
O=C(NCc1ccccn1)c1ccc(CS(=O)c2ccccc2)o1 (configuration not stated)	-2.81	-1.08
CCCS(=O)(=O)c1nc(S(=O)(=O)c2ccc(C)cc2)c(N2CCOCC2)s1	0.35	-0.34
CCOC(=O)c1sc2nc(N3CCCCC3)c3c(c2c1N)CC(C)(C)OC3	0.75	0.02
O=C(O)c1ccc(Cn2ccc([N+](=O)[O-])n2)cc1	1.55	-0.81
CCOC(=O)c1c(NC(=O)c2cc(=O)c3cc(Cl)ccc3o2)sc2c1CCCC2	-0.07	-0.46
C[Si]1(C)O[Si](C)(C)O[Si](C)(CC[Si](C)(C)c2ccccc2)O[Si](C)(C)O1	x	-1.78
COc1ccc(S(=O)(=O)N2CCc3nc(NC(=O)C4CCC4)sc3C2)cc1	2.31	x
c1ccc(-c2nnc(-c3ccccc3OCc3cn4ccccc4n3)o2)cc1	0.33	x
O=C1c2cccnc2C(=O)N1Cc1ccc(S(=O)(=O)Nc2ccc(Br)cc2F)s1	-0.04	x
O=c1[nH]c2ccc(Cl)cc2o1	x	-2.02
CCNC(=O)NC1CCN(c2cc(C)nc3ncnn23)CC1	1.5	1.26
CN(C)c1ccc(C2C(C#N)=C3N=C(N)c4ccccc4N3C3=C2C(=O)CCC3)cc1 (configuration not stated)	-3.98	-1.7
CCCCC(=O)Nc1ccc2c(c1)nc(Cn1ccnc1C)n2CCCC	1.21	-1.28
O=C(O)CCSc1n[nH]c(=O)[nH]c1=O	0.23	-0.53
CCOC(=O)c1c(NC(=O)c2cccs2)sc2c1CCCC2	-1.02	-3.22
CC(C)CCn1c(Cl)nc2c1c(=O)n(C)c(=O)n2C	x	-1.29
CCCCSc1nc2c(cnn2-c2ccc(F)cc2)c(=O)[nH]1	x	0.1
CCS(=O)(=O)Nc1cc(-c2cn3cccc(C)c3n2)ccc1C	0.59	-0.93
C=CCNC(=O)C1CCN(c2cnccn2)CC1	0.06	-1.72
CCCn1cc(S(=O)(=O)c2ccc(C)cc2)c(=O)c2cc(CC)ccc21	0.78	-1.84
Nc1ccc(CCc2nc3ccccc3[nH]2)cc1	1.76	-1.04
O=C(CSc1ccc2nnc(-c3ccccc3)n2n1)Nc1ccc2c(c1)OCCO2	x	-1.72
O=C(Cn1ncc2c(=O)oc3ccccc3c21)NCCCN1CCOCC1	-1.44	-1.36
CC1=C(C(=O)OCCc2ccccc2)C(c2ccc(F)c(F)c2)C2=C(CCCC2=O)N1 (configuration not stated)	0.85	-5.44

Remaining list, next part:
molecule	TAR Tat displ	CDC25B CDK2 inh
Cc1c(C(=O)NCCN(C)C)sc2nc3n(c(=O)c12)CCC3	1.38	x
O=C(Nc1ccc(F)cc1)C1CCCN(S(=O)(=O)c2cnc[nH]2)C1 (configuration not stated)	x	-0.81
O=c1ccc(-c2ccc(S(=O)(=O)NCc3ccco3)o2)n[nH]1	1.45	x
O=C(O)CC(Nc1nc(-c2ccccc2)nc2ccccc12)C(=O)O (configuration not stated)	x	0.36
Cc1[nH]c2ccccc2c1-c1cc2c3c(C)n(C)c(C)c3c(C)nn2c1	0.37	1.27
O=C(c1[nH]nc2c1COc1ccccc1-2)N1CCN(c2cccc(Cl)c2)CC1	-1.43	x
COc1ccc(OC)c(-n2nnc(-c3nc(-c4ccc(C)cc4)no3)c2C)c1	1.95	x
Cc1oc2ccc(OCC(=O)C(C)(C)C)cc2c1C(=O)OC(C)C	x	-0.33
COc1ccc(NC(=O)NC(=O)CC#N)cc1	x	-1.44
O=C(NCc1ccco1)c1ccc(Cn2c(=O)c3cccn3c3cccnc32)cc1	0.78	x
Cc1cc(C)n(-c2nc3c(c(=O)n2CC(=O)N2CCCC2)CCCC3)n1	1.85	x
O=C(O)c1nc2ccccn2c1F	-0.7	0.71
COc1ccc(C2Nn3c(C)nnc3SC2C(=O)N2CCOCC2)cc1Br (configuration not stated)	-0.62	-1.65
CC(C)Oc1ccc(C2N3CC4(C)CN2CC(C)(C3)C4O)cc1 (configuration not stated)	2.95	0
Cc1[nH]nc(SCC(=O)N2CCCCC2C)c1[N+](=O)[O-] (configuration not stated)	-0.85	-1.57
N#CC1=C2SCN(Cc3ccco3)CN2C(=O)CC1c1ccc(Br)cc1 (configuration not stated)	2.08	-1.75
COC(=O)c1ccc(C2NC(=O)c3[nH]nc(-c4ccccc4)c32)cc1 (configuration not stated)	x	-1.35
O=C(CSc1n[nH]c(-c2ccncc2)n1)c1ccc(Cl)cc1	0.51	8.83
CCc1ccc(C2C3=C(CC(C)(C)CC3=O)Nc3cc(OC)c(OC)cc32)cc1 (configuration not stated)	-0.2	-1.6
N#CC(C(=O)Nc1ccc(Cl)cc1)C(=O)c1cccs1 (configuration not stated)	x	-0.97
COc1ccc(OC)c(NC(=O)CCc2nnc3ccc(NCc4ccco4)nn23)c1	1.37	x
O=C(Cn1cnc(S(=O)(=O)N2CCCC2)c1)Nc1ccc(Br)cc1F	0.93	x

Part of the list above, set out differently:
> COc1ccc(C2Nn3c(C)nnc3SC2C(=O)N2CCOCC2)cc1Br (configuration not stated)
  TAR Tat displ: -0.62
  CDC25B CDK2 inh: -1.65

> CC(C)Oc1ccc(C2N3CC4(C)CN2CC(C)(C3)C4O)cc1 (configuration not stated)
  TAR Tat displ: 2.95
  CDC25B CDK2 inh: 0

> Cc1[nH]nc(SCC(=O)N2CCCCC2C)c1[N+](=O)[O-] (configuration not stated)
  TAR Tat displ: -0.85
  CDC25B CDK2 inh: -1.57

> N#CC1=C2SCN(Cc3ccco3)CN2C(=O)CC1c1ccc(Br)cc1 (configuration not stated)
  TAR Tat displ: 2.08
  CDC25B CDK2 inh: -1.75

Bioassay records: PubChem, Center for Chemical Genomics, University of Michigan
